# Source: PubChem (Broad Institute)
# A1 inhib = blocks A1 activity; MEF A1-2A-BIM cells, caspase-Glo luminescence, 3 h; percent of clofoctol signal, DMSO as zero; caspase activation, % (concentration not given with the values); hit rate 0.51% among 21,000;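 active = most replicate scores above 10, or exactly half above 10 with mean activity above 10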;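 note: effector caspase 3 and 7 activity cleaving a DEVD luciferin substrate; 50 nL library stock added to about 30 µL; numbers are from one replicate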
# BJeLR viability = lowers viability of BJeLR cells | viability loss activity score, % (no concentration beside the values) | BJeLR fibroblasts viability, CellTiterGlo ATP luminescence, 48 h; HRASV12, hTERT and SV40 LT/ST transformed | hit rate 0.64% among 30,000; in the data active = viability loss activity score above about 50%; about a fifth of its hits are not listed in these tables;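 note: higher score means fewer live cells and less ATP luminescence; stock transfer was 50 or 100 nL into about 30 µL; 0% = vehicle wells and 100% = a reference killing control; one replicate is shown; the record names a cut of 85%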
# * marks the source's active call; other numbers are inactive results; x = not tested or not shown. This is a subset (hit frequency here may not be typical).
# Order of values: A1 inhib, BJeLR viability
> CCOC(=O)CSc1nc2c(sc(=S)n2-c2ccccc2C)c(=O)n1-c1ccc(F)cc1
  -0.6, -1.5
> Cc1ccc(S(=O)(=O)Nc2ccc3c(c2)C(=O)N([C@H](C)CO)C[C@H](C)[C@@H](CN(C)Cc2ccc(C(=O)Nc4ccccc4N)cc2)O3)cc1
  x, 2.2
> CS(=O)(=O)NN1C(=O)c2ccccc2NC12CCCCC2
  x, 1.2
> CNS(=O)(=O)c1ccc(C)c(-c2nnc3c4ccccc4c(C)nn23)c1
  x, 0.1
> CCCCCCC/C=C/C(=O)CCc1ccc(O)c(OC)c1
  0.1, -2.3
> Cc1ccc(S(=O)(=O)Nc2cccc3c2O[C@@H](CN(C)C)[C@H](C)CN([C@@H](C)CO)C3=O)cc1
  x, -5.1
> COc1ccc(S(=O)(=O)Nc2ccc3c(c2)C(=O)N([C@H](C)CO)C[C@H](C)[C@H](CN(C)C(=O)Nc2ccccc2)O3)cc1
  -0.1, -6.9
> Cc1c(C(=O)NC2CCS(=O)(=O)C2)oc2ccccc12 (centres undefined)
  0.5, 1.0
> COC(=O)c1c(NC(=O)C(C)C)sc2c1CCC2
  -0.5, 0.0
> O=C(NCc1ccncc1)C1c2ccccc2Oc2ccccc21
  x, -0.3
> COc1ccc(-c2cc(=O)c3c(O)c(OC)c(O)c(OC)c3o2)cc1
  -0.4, -9.9
> C[C@H]1CN([C@@H](C)CO)C(=O)c2cccc(NC(=O)c3cnccn3)c2O[C@@H]1CN(C)CC1CC1
  x, -0.3
> C[C@@H]1CN([C@H](C)CO)C(=O)c2cccc(NC(=O)c3nc4ccccc4s3)c2O[C@H]1CN(C)Cc1ccc2c(c1)OCO2
  x, 0.2
> CC(C)NC(=O)N(C)C[C@H]1Oc2ccc(NC(=O)Cn3cnnn3)cc2C(=O)N([C@@H](C)CO)C[C@@H]1C
  1.5, -1.5
> C[C@@H]1CN([C@@H](C)CO)C(=O)c2cccc(NC(=O)c3ccc(-c4nccs4)cc3)c2O[C@H]1CN(C)CC1CC1
  x, 7.7
> C[C@@H]1CN([C@H](C)CO)C(=O)c2cc(NC(=O)Cc3ccccc3)ccc2O[C@@H]1CN(C)C(=O)Nc1ccc2c(c1)OCO2
  -0.8, 0.0
> CC1=CC(/C=C(\C)CCC(O)C(O)/C=C/C(=O)O)C2(O)C(=O)NC(CC(C)C)C2C1C (centres undefined)
  -0.5, 1.0
> C[C@H]1CN([C@@H](C)CO)C(=O)c2cccc(NC(=O)Nc3cccc4ccccc34)c2O[C@H]1CN(C)C(=O)Nc1ccc(F)cc1
  x, -7.6
> Cc1c(CCNC(NC(=O)c2ccc(Cl)cc2)(C(F)(F)F)C(F)(F)F)c2ccccc2n1C
  0.1, 0.4
> COc1ccc(NC(=O)N(C)C[C@H]2Oc3ccc(NC(=O)c4ccncc4)cc3C(=O)N([C@H](C)CO)C[C@@H]2C)cc1
  -0.4, -0.5
> O=C(Nc1cccc(Cl)c1)c1ccc2c(Cl)c3c(nc2c1)CCCC3
  x, 8.3
> CC(C)CCNC(=O)C1c2ccccc2C(=O)N(C)C1c1cn(C)c2ccccc12 (centres undefined)
  x, -1.9
> C[C@@H]1CN([C@@H](C)CO)C(=O)c2cccc(N(C)C)c2O[C@@H]1CN(C)C(=O)Nc1cccc2ccccc12
  x, -2.8
> COc1ccc(S(=O)(=O)Nc2ccc3c(c2)C(=O)N([C@@H](C)CO)C[C@@H](C)[C@@H](CN(C)S(=O)(=O)c2cccs2)O3)cc1
  0.7, -2.9
> Cc1ccc(S(=O)(=O)N(C)C[C@H]2Oc3ccc(NC(=O)Nc4ccc5c(c4)OCO5)cc3C(=O)N([C@@H](C)CO)C[C@@H]2C)cc1
  0.5, -4.0
> COC(=O)c1cc(N2C(=O)C3C4C=CC(C)(O4)C3C2=O)ccc1Cl (centres undefined)
  1.1, -3.5
> Cc1ccc(C2=NN(C(=O)c3ccc(Br)o3)C(c3ccc(C)cc3)C2)cc1 (centres undefined)
  -0.9, -4.9
> C[C@@H]1CN([C@H](C)CO)C(=O)c2cc(NS(C)(=O)=O)ccc2O[C@@H]1CN(C)C(=O)Nc1ccc2c(c1)OCO2
  -0.1, -1.0
> C[C@H]1CN([C@@H](C)CO)C(=O)c2cc(NC(=O)Cc3ccccc3)ccc2O[C@@H]1CN(C)C(=O)NC1CCCCC1
  0.2, 2.7
> C[C@H]1CN([C@@H](C)CO)C(=O)c2cc(NC(=O)c3ccncc3)ccc2O[C@H]1CN(C)C
  -0.5, 2.5
> CCc1c(C)sc(NC(=O)/C=C/c2ccc(F)cc2)c1C(=O)OC
  -0.2, -1.3
> O=Cc1c2[nH]c3ccccc3c2cc2[nH]c3ccccc3c12
  0.0, -0.8
> Cc1noc(C)c1NC(=O)N(C)C[C@H]1Oc2ccc(NS(=O)(=O)c3ccccc3)cc2C(=O)N([C@@H](C)CO)C[C@H]1C
  -0.8, -3.9
> O=C(NC1CCCC1)c1cc(-c2ccc(F)cc2)no1
  -2.1, 4.3
> CSc1nc2c(sc(=S)n2-c2ccccc2C)c(=O)n1-c1ccccc1C
  0.9, -1.4
> CCc1ccc(Nc2cc(=O)n(C3CCCCC3)c(=O)[nH]2)cc1
  1.7, 2.6
> C/C1=C/C[C@]2(C)C(=O)C(=O)C([C@H](C)CO)[C@H]2C/C=C(/C)[C@@H](O)CC/C(C)=C\CC1 (some centres undefined)
  -0.4, 2.8
> CN(C)c1ccc2nc3c(nc2c1)C(=O)c1ccccc1C3=O
  -6.3, 6.7
> C[C@@H]1CN([C@H](C)CO)C(=O)c2cc(NC(=O)NC3CCCCC3)ccc2O[C@H]1CN(C)Cc1ccc(Cl)c(Cl)c1
  0.5, -3.6
> O=C(NCc1ccccc1Cl)c1ccc2c(Cl)c3c(nc2c1)CCCC3
  x, -6.8
> CC(C)NC(=O)Nc1ccc2c(c1)C(=O)N([C@H](C)CO)C[C@@H](C)[C@H](CN(C)Cc1ccc(Cl)c(Cl)c1)O2
  -0.4, 5.0
> C[C@H](CO)N1C[C@H](C)[C@H](CN(C)C(=O)Nc2ccccc2)Oc2ccc(NC(=O)Cn3cnnn3)cc2C1=O
  0.9, 1.3
> C[C@@H]1CN([C@H](C)CO)C(=O)c2cccc(NC(=O)NC3CCCCC3)c2O[C@@H]1CN(C)Cc1ccc(-c2ccccc2)cc1
  x, -2.4
> COC(=O)c1cc2sccc2n1CC(=O)Nc1cc(OC)cc(OC)c1
  0.7, -4.0
> Cc1ccc(S(=O)(=O)N(C)C[C@H]2Oc3ccc(NS(=O)(=O)c4ccc(F)cc4)cc3C(=O)N([C@H](C)CO)C[C@@H]2C)cc1
  0.8, -0.2
> CCCc1cc(=O)oc2c(C)c3oc(C)c(C)c3cc12
  -0.1, -2.9
> CC(C)NC(=O)Nc1ccc2c(c1)C(=O)N([C@@H](C)CO)C[C@@H](C)[C@H](CN(C)Cc1ccc(C(=O)Nc3ccccc3N)cc1)O2
  x, 1.8
> CN1CCN(c2ccc(NS(=O)(=O)c3cccc4nonc34)cc2)CC1
  1.0, -3.5
> COc1cccc(CNc2ccc3c(c2)ncn3C(C)(C)C)c1OC
  x, 2.8
> Cc1ccc(C(=O)CC(C(=O)O)N2CCN(C)CC2)cc1 (centres undefined)
  0.4, 5.9
> C=CCn1c2ccccc2c2nnc(SCCCC(=O)c3ccc(F)cc3)nc21
  -1.0, 2.5
> COc1ccc(S(=O)(=O)Nc2ccc3c(c2)C(=O)N([C@@H](C)CO)C[C@@H](C)[C@@H](CN(C)Cc2ccc(C(=O)O)cc2)O3)cc1
  0.2, -0.7
> C[C@@H]1CN([C@H](C)CO)C(=O)c2cc(NS(=O)(=O)c3ccc(F)cc3)ccc2O[C@H]1CN(C)S(C)(=O)=O
  -0.1, -1.5
> CCc1ccc(C(O)(c2ccccc2)C(CN2CCOCC2)c2ccccc2)cc1 (centres undefined)
  -0.4, 1.7
> CC(C)CN(CC(C)C)S(=O)(=O)N1CCC(C(=O)N2CCc3ccccc3C2)CC1
  0.7, 4.1
> Cc1noc(C)c1NC(=O)Nc1ccc2c(c1)C(=O)N([C@H](C)CO)C[C@@H](C)[C@@H](CN(C)S(=O)(=O)c1cccs1)O2
  0.4, -3.7
> C[C@H]1CN([C@@H](C)CO)C(=O)c2cc(NS(=O)(=O)c3cccs3)ccc2O[C@H]1CN(C)Cc1ccc(C(=O)O)cc1
  0.6, 3.8
> C[C@@H]1CN([C@H](C)CO)C(=O)c2cccc(NC(=O)Nc3ccc(F)cc3)c2O[C@@H]1CN(C)CC1CC1
  x, 3.9
> CCOC(=O)n1ccn(C)c1=S
  0.4, 21.2
> Cc1cc(C)c2c(N)c(-c3nnc(SCc4ccc(Cl)cc4)n3C)sc2n1
  0.2, -4.1

# Overlap with the part before: five entries; new compounds follow.
# Order of values: A1 inhib, BJeLR viability
> Cc1noc(C)c1NC(=O)Nc1ccc2c(c1)C(=O)N([C@H](C)CO)C[C@@H](C)[C@@H](CN(C)S(=O)(=O)c1cccs1)O2
  0.4, -3.7
> C[C@H]1CN([C@@H](C)CO)C(=O)c2cc(NS(=O)(=O)c3cccs3)ccc2O[C@H]1CN(C)Cc1ccc(C(=O)O)cc1
  0.6, 3.8
> C[C@@H]1CN([C@H](C)CO)C(=O)c2cccc(NC(=O)Nc3ccc(F)cc3)c2O[C@@H]1CN(C)CC1CC1
  x, 3.9
> CCOC(=O)n1ccn(C)c1=S
  0.4, 21.2
> Cc1cc(C)c2c(N)c(-c3nnc(SCc4ccc(Cl)cc4)n3C)sc2n1
  0.2, -4.1
> C[C@@H]1CN([C@@H](C)CO)C(=O)c2cccc(NC(=O)Nc3ccc(F)cc3)c2O[C@@H]1CN(C)Cc1ccncc1
  x, -4.7
> C[C@@H]1CN([C@H](C)CO)C(=O)c2cccc(NS(=O)(=O)c3cn(C)cn3)c2O[C@@H]1CN(C)C
  x, 4.2
> C[C@H]1CN([C@@H](C)CO)C(=O)c2cc(NC(=O)Nc3ccc(F)cc3)ccc2O[C@@H]1CN(C)S(=O)(=O)c1ccccc1
  0.2, -6.0
> Cc1nn(Cc2ccc(C(=O)n3cc(Cl)cn3)o2)c(C)c1Cl
  1.7, 0.7
> C[C@H]1CN([C@@H](C)CO)C(=O)c2cccc(NS(=O)(=O)c3ccc(F)cc3)c2O[C@@H]1CN(C)Cc1ccc(Cl)c(Cl)c1
  x, -2.4
> COc1ccc(-c2nc(CNS(=O)(=O)N(C)C)cs2)cc1
  -0.1, 9.2
> Cc1onc(-c2c(Cl)cccc2Cl)c1C(=O)N=S(C)(C)=O
  0.9, -5.0
> CCSCC1COC(c2cccn2Cc2ccc(F)cc2)=N1 (centres undefined)
  x, -1.6
> CC(C)NC(=O)Nc1ccc2c(c1)C(=O)N([C@H](C)CO)C[C@H](C)[C@H](CN(C)Cc1ccc(Cl)c(Cl)c1)O2
  -0.4, 0.5
> CN(C)c1nc(SCCOC(=O)COc2ccc(Cl)cc2Cl)nc(N(C)C)n1
  x, -0.2
> COC(=O)C1=C(NC(=O)c2ccc(S(=O)(=O)N3CCOCC3)cc2)CCS1
  -0.3, 1.7
> O=C(NCCc1ccccc1)c1nnc(Cc2ccc(F)cc2)o1
  x, -0.8
> C=CCn1c(SC)nc2c(c1=O)C1(CCCCC1)Cc1ccccc1-2
  -1.5, 3.6
> Cc1noc(C)c1NC(=O)N(C)C[C@@H]1Oc2ccc(NC(=O)Cn3cnnn3)cc2C(=O)N([C@H](C)CO)C[C@H]1C
  -0.6, 0.1
> COc1ccc(-n2nc3c(c2NC(=O)/C=C\c2ccc4c(c2)OCO4)CS(=O)(=O)C3)cc1
  0.6, 0.8
> CCc1ccccc1NC(=O)c1ccc2snnc2c1
  0.4, 3.0
> Cc1cc(C(=O)OCC(=O)N2c3ccccc3Sc3ccccc32)c2ccccc2n1
  -0.6, -2.2
> Cc1noc(C)c1NC(=O)Nc1ccc2c(c1)C(=O)N([C@H](C)CO)C[C@H](C)[C@@H](CN(C)C(=O)NC1CCCCC1)O2
  0.6, 7.9
> C[C@H]1CN([C@@H](C)CO)C(=O)c2cc(NC(=O)Cc3cn(C)c4ccccc34)ccc2O[C@@H]1CN(C)Cc1ccc2c(c1)OCO2
  -0.2, -2.2
> Cc1ccc(OCCNC(=O)c2ccc(C(C)(C)C)cc2)cc1
  0.4, 1.2
> C[C@@H]1CN([C@@H](C)CO)C(=O)c2cc(N(C)C)ccc2O[C@@H]1CN(C)Cc1ccc(C(F)(F)F)cc1
  -0.5, -0.1
> Cc1c(Cl)cccc1NS(=O)(=O)c1cccc2nsnc12
  x, 0.4
> C[C@H]1CN([C@@H](C)CO)C(=O)c2cccc(NC(=O)c3ccncc3)c2O[C@@H]1CN(C)Cc1ccc2c(c1)OCO2
  x, 4.1
> COc1ccc(NC(=O)Nc2cccc3c2O[C@H](CN(C)C(=O)NC(C)C)[C@@H](C)CN([C@H](C)CO)C3=O)cc1
  x, -9.4
> CCC(C)C(=O)Nc1ccc(Cl)cc1 (centres undefined)
  0.2, 4.6
> CC(C)NC(=O)Nc1ccc2c(c1)C(=O)N([C@@H](C)CO)C[C@@H](C)[C@@H](CN(C)S(C)(=O)=O)O2
  -0.4, -2.2
> Cc1noc(C)c1NC(=O)N(C)C[C@@H]1Oc2c(NC(=O)c3ccncc3)cccc2C(=O)N([C@@H](C)CO)C[C@H]1C
  x, 2.7
> C[C@@H]1CN([C@@H](C)CO)C(=O)c2cc(N(C)C)ccc2O[C@@H]1CN(C)S(=O)(=O)c1ccccc1
  0.1, 0.0
> CC1CCCC(NC(=O)CNC(=S)N(Cc2ccccc2)Cc2cccs2)C1C (centres undefined)
  -0.5, 4.0
> O=c1c(F)cn(C2CCCO2)c(=O)n1Cc1ccc(Cl)cc1 (centres undefined)
  0.5, -1.1
